Assay outcomes deposited in PubChem by National Center for Advancing Translational Sciences (NCATS).
PINK1 modulator: PINK1 expression modulation; PINK1 immunofluorescence, high-content cytometry, 24 h; Potency, µM (titrated, usually from 76.6 µM), inactives show at the top dose activation (PINK1 increase), hits mostly activators; 410,000 tested, 0.2% active; AID 624263; active = well fitted activation curve with a large enough effect; inconclusive = small, poorly fitted or top-dose-only effect; inactive = flat fitted curve, though single readings scatter; cell line not stated here;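 note: potency is the fitted concentration of half-maximal effect; % of control where 0% means no effect; nearly all actives have a fitted effect of over 65% in size; a mitochondrial uncoupler was the plate control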
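Decision-based qHTS: stable cells, 24 h exposure to five compound concentrations, CCCP as control. Fixed cells stained for PINK1 plus nuclear, mitochondrial and cell markers, cytometer read.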
D2 agonist: agonists of human D2 dopamine receptor (beta-arrestin); P14416; DiscoveRx PathHunter D2 beta-arrestin, luminescence, 90 min; 100% = 57 uM dopamine signal; activation, % (no concentration beside the values); 360,000 tested, 0.084% active; AID 624465; in the data active = activation above about 40%; inconclusive = about 15% to 40%; inactive = below about 15%; note: compound concentration not given in the record; the text of the record calls up to 30% inactive
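Agonist mode: compounds alone added to overnight-plated D2 PathHunter cells for 90 min at 37 C, with 57 uM final dopamine (EC100) defining full response. Beta-arrestin recruitment detected by chemiluminescent reagent, read after 1 h at ambient temperature.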
TRPML1 blocker: human mucolipin-1 channel inhibition. TRPML1-inducible cells, Ca2+ dye fluorescence, FDSS; active compounds read low; inhibition of EC80 agonist-evoked calcium signal. AID 624415. 390,000 tested, 0.02% active. activity change, negative = inhibition, % (concentration not given with the values); in the data active means activity change below about -50%; inconclusive means about -30% to -50%; inactive means above about -30%;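 note: stimulus is agonist 54-4 at its EC80 concentration; % is set by controls: 0 for no effect and ±100 for the full control effect; the text of the record puts the active cut at -80%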
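Tet-induced TRPML1-DL cells loaded with Ca8 no-wash calcium dye were read kinetically on FDSS. Compound addition was followed by EC80 agonist 54-4 (4 uM final); inhibition was read over 110 s.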
D2 PAM: potentiates the human D2 dopamine receptor allosterically; potentiation, % (test concentration not listed); P14416; DiscoveRx D2 beta-arrestin cells, luminescence, 90 min; 100% = 57 uM dopamine signal; 360,000 tested, 0.23% active; active = potentiation of 50% or more; inconclusive = 30% to 50%; inactive = 30% or less;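 note: compound concentration not given in the record; tested on top of an EC20 dose of dopamine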
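PathHunter D2 cells, attached overnight at 37 deg C, received compound in DMSO plus dopamine at EC20 (50 nM final) for 90 min at 37 deg C. Beta-arrestin recruitment was read as luminescence after 1 h with detection reagent at ambient temperature.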
Six1-Eya2 inh: blocks human Six1 binding to Eya2 | AID 651725 | Q15475+O00167 | 360,000 tested, 0.56% active | AlphaScreen GST-Six1/His-Eya2 binding, biochemical; active compounds read low; control for the full effect not named in the record | activity change, % (no concentration beside the values); in the data active = activity change below about -65%; inconclusive = about -30% to -65%; inactive = above about -30%; note: % is set by controls: 0 for no effect and ±100 for the full control effect
Target sequence (O00167 whole entry, looked up): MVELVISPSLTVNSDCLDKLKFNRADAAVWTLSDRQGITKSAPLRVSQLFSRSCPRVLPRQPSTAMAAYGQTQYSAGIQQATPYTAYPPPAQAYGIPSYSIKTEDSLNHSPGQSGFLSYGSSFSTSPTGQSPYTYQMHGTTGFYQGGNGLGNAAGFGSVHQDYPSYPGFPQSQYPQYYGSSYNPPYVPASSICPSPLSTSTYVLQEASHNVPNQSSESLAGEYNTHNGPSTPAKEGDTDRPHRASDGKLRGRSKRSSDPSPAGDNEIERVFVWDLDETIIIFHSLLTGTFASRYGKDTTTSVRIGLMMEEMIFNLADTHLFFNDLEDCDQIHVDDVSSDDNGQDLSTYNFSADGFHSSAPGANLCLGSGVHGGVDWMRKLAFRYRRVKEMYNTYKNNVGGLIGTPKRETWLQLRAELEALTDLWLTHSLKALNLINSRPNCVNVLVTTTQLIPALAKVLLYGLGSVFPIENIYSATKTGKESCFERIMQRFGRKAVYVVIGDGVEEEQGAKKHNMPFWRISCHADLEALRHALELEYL
Target sequence (Q15475 whole entry, looked up): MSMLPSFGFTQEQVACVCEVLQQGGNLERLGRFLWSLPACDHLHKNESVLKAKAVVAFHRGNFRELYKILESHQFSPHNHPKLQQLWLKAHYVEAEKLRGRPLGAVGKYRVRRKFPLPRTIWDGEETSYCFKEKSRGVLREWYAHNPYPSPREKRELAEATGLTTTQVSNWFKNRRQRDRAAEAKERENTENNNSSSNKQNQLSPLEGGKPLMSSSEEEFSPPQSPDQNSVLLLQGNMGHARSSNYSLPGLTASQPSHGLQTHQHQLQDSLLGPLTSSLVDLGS
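GST-Six1 + His-Eya2 (5X stock: 250/500 nM); Tris pH 8.0, 300 mM NaCl, 0.05% BSA, 0.02% Tween 20; GSH donor/Ni acceptor beads; 1 h 37 °C dark; AlphaScreen readout.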
TRPML1 agonist: agonists of human TRPML1 channel; AID 624414; Q9GZU1; TRPML1-expressing cells, Ca2+ dye fluorescence, FDSS; host cell line not named in the record; reference of the full effect not given here; 410,000 tested, 0.12% active; activation, % (no concentration beside the values); in the data active = activation above about 50%; inconclusive = about 30% to 50%; inactive = below about 30%; note: 0% is about no effect; the text of the record puts the active cut at 80%
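Cells: TRPML1-DL, 1X Tet inducer, ~16 h at 37 degrees C/5% CO2. Dye: ABD Ca8 no-wash + quencher, 45-90 min RT. Read: 10 s baseline, compound add, 110 s agonist phase; 54-4 EC80 (4uM final), 110 s antagonist phase.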
* = called active by the depositor; ? = inconclusive; . = no result given; & = joins results of further samples; [ ] = remark or other dose.

SMILES	PINK1 modulator	D2 agonist	TRPML1 blocker	D2 PAM	Six1-Eya2 inh	TRPML1 agonist
CCN(CC)S(=O)(=O)c1ccc(N2CCCCC2)c(NC(=O)C2CSC3(C)CCC(=O)N23)c1 (stereo unspecified)	1.8%	0.8	16	-5	-1	-0.7
CC(C)Cc1nnc(NC(=O)CCC(=O)NC2CCCCCCC2)s1	0.5%	-4.2	2	-10	0	-0.8
CN(C)CCCNc1cc(-c2ccccc2)nc2cc(-c3cccc(F)c3)nn12	-0.7%	-28	-14	3	10	1.2
CCCC/C=C/c1cccc2nncn12	-0.8%	8.0	.	-1	-1	-1.1
O=C(O)/C(=C\c1cccc(C(F)(F)F)c1)c1ccc(S(=O)(=O)N2CCCC2)s1	-2.0%	0.0	11	-4	-1	-0.6
O=C(NC(=S)Nc1ccccc1N1CCCCC1)c1ccco1	3.5%	-3.7	-7	-9	?	1.6
Cc1c(C(=O)N2CCN(Cc3ccc4c(c3)OCO4)CC2)sc2ncnc(N3CCN(c4ccccc4F)CC3)c12	-0.1%	?	-2	7	-17	-0.3
CCO/C(C)=N/Oc1cc(OC)cc(OC)c1	6.5%	-2.3	.	-2	22	-0.4
COc1ccc(NCc2cc3cc4c(cc3n(CC(=O)Nc3ccc(C)c(C)c3)c2=O)OCO4)cc1	?	.	7	.	.	3.6
CCOC(=O)c1nn(-c2ccccc2C)c2nc(CC(C)C)c(C#N)c(=O)n12	.	-2.2	-6	-30	-1	2.9
Cc1nc2c([nH]c3ccc(Br)cc32)s1	-0.2%[38.3 µM]	2.8	9	9	0	0.3
Cc1ccc2c(c1)N(C(=O)CCC(=O)N1CCOCC1)CCO2	0.5%	-2.5	-16	0	6	-0.4
COc1ccc(C(=O)Cc2nnc(C)s2)cc1	1.2%	-2.9	19	-33	7	0.7
CCOC(=O)c1ccc(-c2c(-c3cc(OC)c(OC)c(OC)c3)noc2C)cc1F	3.0%	0.7	52	-14	2	0.1&0.4
Cc1ccnc(NC(=O)C2CC(=O)N(Cc3ccccc3)C2)c1 (stereo unspecified)	0.1%	-0.6	-5	-4	7	0.6
CC(C)CC(=O)N1CCN(Cc2ccc(Cl)cc2)CC1	1.6%	0.9	-4	-9	2	0.6
COc1ccc(OC)c(NC(=O)Nc2nnc(N3CCCCC3C)s2)c1 (stereo unspecified)	1.7%	1.4	.	-14	-17	.
CCOc1ccc(N2C(=O)CC(Sc3nc(-c4cccs4)cc(C(F)(F)F)c3C#N)C2=O)cc1 (stereo unspecified)	-1.2%	-2.0	-15	8	-23	-0.8
CCOc1ccc(CC(=O)NCCc2sc(-c3cccc(F)c3)nc2C)cc1	0.7%	.	-11	.	.	2.1
CCOC(=O)/C=C/C(=O)OCC(=O)Nc1ccc(OC)c(Cl)c1	6.4%	-4.5	-20	0	-3	-1.1
CCC(=O)Nc1nonc1-c1nc2ccccc2n1Cc1ccc(Cl)c(Cl)c1	15%	1.2	-2	-1	-1	-0.5
O=C1CN2C(=Nc3ccc(Br)cc3C2c2ccccc2)CCN1 (stereo unspecified)	2.2%	-1.1	0	-17	-1	0.7
CC1(C(=O)NS(=O)(=O)c2ccc(F)cc2F)CCN1C(=O)Cc1ccc(-c2ccccc2)cc1 (stereo unspecified)	-0.9%	7.7	.	-5	-5	-0.7
Cc1ccc(-c2noc(C(C)NS(=O)(=O)c3ccc(C)cc3)n2)cc1 (stereo unspecified)	2.6%	.	-7	.	.	0.2
C[C@]12CCC3C(CC[C@H]4CCCC[C@]34C)C1CC[C@@]2(O)CNCCO (stereo partly specified)	-4.0%	-4.5	14	-5	1	-1.0
COc1cccc(/C=C/C(=O)Nc2cccc(C(C)=O)c2)c1OC	0.8%	5.8	13	-5	0	1.7
CCOC(=O)c1c(C)[nH]c(C)c1S(=O)(=O)NCC1CCN(Cc2ccccc2OC)CC1	0.5%	-5.8	-5	-30	-8	-0.7
COc1cccc(C(=O)c2cn(CC(=O)NCc3ccccc3)c3nc(C)ccc3c2=O)c1	0.5%	.	11	.	.	1.4
CCc1nnc2sc(-c3ccc(NC(=O)c4ccco4)cc3)nn12	.	6.3	14	15	-15	2.5
COc1ccc2c(c1OC)C(=O)OC2C/C(=N\NC(N)=O)c1ccccc1 (stereo unspecified)	4.3%	1.6	9	-2	3	0.1
CSc1nsc(SCC(=O)Nc2ccc(O)c(C(=O)O)c2)n1	-0.3%	-7.9	6	-7	-10	1.7
CCOc1ccc(NS(=O)(=O)N(C)C)cc1	-1.7%	0.9	-13	-1	4	2.7
CC(C)CC(C(=O)Nc1oc(-c2ccccc2)c(-c2ccccc2)c1C#N)N1C(=O)c2ccccc2C1=O (stereo unspecified)	-1.7%	-4.8	6	-22	-20	4.4
CCOC(=O)C1(CCCc2ccccc2)CCN(C(=O)c2ocnc2C)CC1	-0.9%	6.7	1	-3	-2	2.4
Cc1ccc(S(=O)(=O)N2C/C=C\CN(S(=O)(=O)c3ccccc3Br)CC2)cc1	-0.6%	2.7	72	.	5	0.3
CCC(C)c1ccccc1NC(=O)CN(CC)CC(=O)Nc1ccc2c(c1)OCCO2 (stereo unspecified)	1.9%	-4.6	40	-7	4	3.5
Cc1ccc(C)c(-c2cc(C(=O)Nc3cccnc3)c3ccccc3n2)c1	6.3%	-0.2	-4	25	0	1.6
Cc1ccc(NC2=NCC(=O)N2Cc2cccs2)cc1C	0.8%	-4.5	4	1	-1	4.9
CN1CCc2c(sc3c2c(=O)n(-c2cccc(Cl)c2)c2nncn32)C1	1.5%	3.1	1	6	-1	-0.6
CC(C)n1cc([C@@H]2C[C@H]3CN(Cc4cccc(Cl)c4)C(=O)[C@]34CCCN24)cn1	2.5%	1.0	24	-2	11	0.0
CCC(Sc1nnc2c(n1)[nH]c1ccccc12)C(=O)Nc1nnc(C(C)C)s1 (stereo unspecified)	2.5%	.	5	.	.	0.4
CCOc1ccc(CCNC(=O)c2ccc3c(c2)N(Cc2ccccc2)C(=O)c2ccccc2S3=O)cc1OCC (stereo unspecified)	2.4%	.	-11	.	.	0.5
CCOC(=O)N1CCN(C(=O)CNCc2cccs2)CC1	-0.9%	-0.9	-1	-8	6	2.4
COc1ccc(NS(=O)(=O)c2ccc(N)c(C(=O)O)c2)cc1	1.8%	-3.1	4	-46	-1	-0.7
CC1(c2ccc(OC(F)F)cc2)NC(=O)N(CC(=O)Nc2ccc(Cl)cc2F)C1=O (stereo unspecified)	1.4%	-0.4	-10	-6	-3	12
O=C(Nc1ccc(F)c([N+](=O)[O-])c1)C1CCCO1 (stereo unspecified)	-2.0%	-6.4	7	-6	9	1.1
CNc1nc(N)nc(OC(C(F)(F)F)C(F)(F)F)n1	1.5%	-2.6	11	-7	-1	-0.2
CC(C)c1ccccc1NS(=O)(=O)c1cccs1	4.7%	-5.7	24	-5	9	1.7
CC(C)C[C@H](NC(=O)N1CC(=O)Nc2ccccc21)C(=O)N[C@H](C(=O)O)c1ccccc1	0.3%	-4.4	.	-21	3	.
COCCn1c(SCC(=O)NCc2ccco2)nnc1C(C)C	-0.2%	-1.3	-1	2	1	0.5
O=c1c(Cc2ccc(Cl)cc2)c(O)ccn1Cc1cccc(Cl)c1	?	-3.9	4	-21	-9	0.7
O=C(COc1ccc(=O)n(-c2ccccc2)n1)Nc1ccccc1	0.0%	1.8	1	-4	-3	0.0
COc1cc(N=Nc2ccc3ccccc3c2)ccc1O	1.7%	-8.4	39	-7	?	1.8
CSc1cccc(NC(=O)CN2C(=O)COc3ccc(S(=O)(=O)N4CCC(C)CC4)cc32)c1	-0.1%	.	-3	.	.	1.7
Cc1ccc(NC(=O)Cn2c(=O)n(CC3CCC(C(=O)NC(C)C)CC3)c(=O)c3sccc32)cc1 (stereo unspecified)	-0.7%	.	13	.	.	-0.7
O=C(CSc1nnc(NC(=O)c2ccccc2F)s1)NCc1ccco1	-0.3%	-3.2	-17	-6	11	-0.1
CCCc1nc2c(C)cc(C)cc2c(N)c1CC	1.1%[38.3 µM]	0.4	21	-8	-5	4.3
O=C(Oc1ccc(OC(=O)c2ccco2)c(S(=O)(=O)c2ccc(Br)cc2)c1)c1ccco1	4.2%	9.8	20	16	-27	-0.3
COc1ccc(Cl)cc1N(C)C(=O)CCc1nc(-c2ccc(C)cc2)no1	22%	-2.0	-5	-9	-3	0.4
CNCc1cc2ccc(C)cc2[nH]c1=O	0.3%	-0.5	25	-27	0	0.3
More compounds follow:
SMILES	PINK1 modulator	D2 agonist	TRPML1 blocker	D2 PAM	Six1-Eya2 inh	TRPML1 agonist
COc1ccc(CN(Cc2ccco2)S(=O)(=O)c2ccc(S(=O)(=O)N3CCCC3)cc2)cc1	16%	1.9	7	-5	4	0.5
Cc1ccccc1NC(=O)C1C2CC/C=C\CCC21 (stereo unspecified)	0.4%	-2.3	5	-9	2	-0.1
COc1ccc(CN2CCCC(N3CCN(c4cccc(Cl)c4)CC3)C2)cc1OC (stereo unspecified)	-0.6%	-1.7	-3	-42	-4	-0.7
Cc1nnc(NC(=O)c2cccc(S(=O)(=O)N3CCOCC3)c2)s1	0.9%	0.5	2	-8	28	-0.9
O=c1cc(CN2CCCCC2)c2c(ccc3ccccc32)o1	0.8%	-1.4	.	-3	4	-0.5
CCOc1ccccc1NC(=O)C(=O)CC(=O)c1cccc(OC)c1	0.1%	3.4	-16	-4	-4	3.3
CC(NCCc1ccc(S(N)(=O)=O)cc1)C(=O)NCc1ccccc1 (stereo unspecified)	-1.4%	-2.0	-3	-17	0	0.0
CC(=O)N1CCOc2ccc(S(=O)(=O)N3CC(C)CC(C)C3)cc21 (stereo unspecified)	-2.2%	-2.4	-21	-11	3	-0.4
CCOC(=O)[C@H]1[C@H]2COc3ccccc3[C@@H]2N2C(=O)CN(Cc3ccccc3)C(=O)[C@@]12C	-1.1%	-3.9	-9	-3	6	-0.3
Cc1nn(C)cc1C(=O)NNC(=S)Nc1ccccc1	1.0%	-5.9	29	-12	6	1.1
NC(=O)C1Cc2ccccc2CN1C(=O)c1cccc(Oc2ccccc2)c1 (stereo unspecified)	4.6%	1.6	-4	1	-4	-0.2
Cc1cccc(NC(=O)c2cccc([N+](=O)[O-])c2O)c1C	?	-8.8	-16	-28	5	0.6

Five compounds out of the list, arranged by length of the SMILES, smallest number first:
SMILES	PINK1 modulator	D2 agonist	TRPML1 blocker	D2 PAM	Six1-Eya2 inh	TRPML1 agonist
Cc1nn(C)cc1C(=O)NNC(=S)Nc1ccccc1	1.0%	-5.9	29	-12	6	1.1
Cc1nnc(NC(=O)c2cccc(S(=O)(=O)N3CCOCC3)c2)s1	0.9%	0.5	2	-8	28	-0.9
CC(=O)N1CCOc2ccc(S(=O)(=O)N3CC(C)CC(C)C3)cc21 (stereo unspecified)	-2.2%	-2.4	-21	-11	3	-0.4
COc1ccc(CN(Cc2ccco2)S(=O)(=O)c2ccc(S(=O)(=O)N3CCCC3)cc2)cc1	16%	1.9	7	-5	4	0.5
CCOC(=O)[C@H]1[C@H]2COc3ccccc3[C@@H]2N2C(=O)CN(Cc3ccccc3)C(=O)[C@@]12C	-1.1%	-3.9	-9	-3	6	-0.3
